Shh pathway inh: blocks Sonic Hedgehog signaling. Shh-LIGHT2 Gli-luciferase reporter, 30 h. inhibition, % (test concentration not listed). hit rate 2.1% among 22,000. AID 2313;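 active means replicate mean of 65% or more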;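 further: pathway switched on by Shh-conditioned medium diluted 1 in 25 in low serum; 100 nL library stock added to about 40 µL; 0% = median of neutral wells and 100% = positive control level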
MITF inh: inhibitors of MITF | inhibition, % (no concentration beside the values) | hit rate 0.28% among 37,000 | TRPM1 promoter luciferase, luminescence, 24 h;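 active means most replicates at 85% or more, or half of them and the mean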;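 further: human melanocyte line stably carrying TRPM1 promoter luciferase reporter; 0% = vehicle wells and 100% = a positive control; the first replicate is given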
PD-1 reverse act: activators reversing PD-1 mediated T-cell inhibition | primary human CD4 T cells, PD-L1 beads, CellTiter-Glo 96 h | activation, % (concentration not given with the values) | 29,000 tested, under 10 active | AID 2316;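 active means replicate mean of 50% or more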;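 further: 0% = median vehicle wells and 100% = positive control; 100 nL library stock added to about 50 µL; numbers are from one replicate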
YB-1 expression: YB-1 expression inhibition | U2OS, qRT-PCR YB-1 vs CDIP delta delta Cp, 16 h; active compounds read high; zero = DMSO, each unit about twofold | delta delta Cp (YB-1 minus CDIP) (concentration not given with the values) | hit rate 0.37% among 30,000;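 active means delta delta Cp rounded down to an integer at or above 3, about 3 SD of DMSO wells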;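 further: higher means less YB-1 transcript or more CDIP transcript relative to DMSO; stock transfer was 100 nL into about 100 µL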
* = called active by the depositor; . = not tested or not shown. A portion of the library; rates above refer to the full screens.

smiles | Shh pathway inh | MITF inh | PD-1 reverse act | YB-1 expression
O=S(=O)(Cc1ccc(Cl)cc1)C1CCCCC1O (stereo not drawn) | -17 | -4 | 3.7 | 0.15
O=C(CSc1nc(-c2ccccc2)cc(=O)[nH]1)Nc1ccccc1 | . | -7 | -0.1 | .
CC(C)NS(=O)(=O)c1ccc(OCC(=O)N2CCOCC2)cc1 | . | -29 | 0.0 | .
CCOC(=O)c1cnc2c(OC)cccc2c1N1CCC2(CC1)OCCO2 | -16 | 7 | 0.9 | -0.37
Cc1ccc(-n2nc3ccc(NC(=O)COc4cccc(C)c4)cc3n2)cc1 | . | -27 | -3.9 | .
Cc1cc(C)nc(SCC(=O)c2cc(C(C)(C)C)c(O)c(C(C)(C)C)c2)n1 | . | -3 | 1.1 | .
CC(NS(=O)(=O)c1ccc(F)cc1)C(=O)Nc1ccc(I)cc1 (stereo not drawn) | . | 11 | 0.6 | .
CC(C)NC(=O)Nc1ccc2c(c1)C(=O)N([C@H](C)CO)C[C@H](C)[C@H](CN(C)CC1CCCCC1)O2 | . | 3 | -0.4 | -0.46
CC(C)NC(=O)Nc1cccc2c1O[C@@H](CN(C)Cc1ccc3c(c1)OCO3)[C@@H](C)CN([C@@H](C)CO)C2=O | -7 | 10 | . | 0.29
CC(C)NC(=O)Nc1cccc2c1O[C@H](CN(C)C(=O)NC(C)C)[C@H](C)CN([C@@H](C)CO)C2=O | 1 | -12 | 1.2 | -0.053
Cc1ccc(Cl)cc1NC(=O)CN(c1cccc(Cl)c1C)S(C)(=O)=O | . | 52 | -5.6 | .
O=C(CSc1ncn(-c2ccccc2)n1)Nc1ccc(Cl)cc1 | . | -18 | 0.4 | .
C[C@@H]1CCCCO[C@H](CN(C)C(=O)Cc2ccccc2)[C@@H](C)CN([C@H](C)CO)C(=O)c2cc(NC(=O)Nc3ccc(C(F)(F)F)cc3)ccc2O1 | 12 | 26 | -4.4 | 0.39
C[C@@H]1CN([C@H](C)CO)C(=O)Cc2cc(NS(=O)(=O)c3cccs3)ccc2O[C@@H]1CN(C)S(=O)(=O)c1cccs1 | -11 | -12 | -1.0 | 0.22
Cc1ccc(NC(=O)CN(c2ccc(F)c(Cl)c2)S(C)(=O)=O)c(C)c1 | . | -6 | 0.6 | .
C[C@H]1CN([C@@H](C)CO)C(=O)Cc2cc(NS(C)(=O)=O)ccc2O[C@@H]1CN(C)Cc1ccncc1 | -14 | -11 | 1.4 | 0.41
Clc1ccccc1OCCSc1nnc(-c2cccnc2)n1-c1ccccc1 | . | -11 | -4.8 | .
COc1ccc(NC(=O)CN2CCN(S(=O)(=O)c3c(C)cc(C)cc3C)CC2)cc1 | . | 20 | -1.5 | .
C[C@@H]1CN([C@H](C)CO)C(=O)Cc2cc(NS(C)(=O)=O)ccc2O[C@@H]1CN(C)S(=O)(=O)c1ccc(Cl)cc1 | -1 | 7 | -1.1 | 0.039
CNC[C@@H]1Oc2c(NS(=O)(=O)c3c(C)noc3C)cccc2C(=O)N([C@@H](C)CO)C[C@@H]1C | 6 | -3 | 1.9 | -0.49
CC1(C)CC(=O)C2=C(C1)N(Cc1ccco1)C(=O)C2(NC(=O)c1ccco1)C(F)(F)F (stereo not drawn) | . | -2 | 0.7 | .
Cc1noc(C)c1NC(=O)N(C)C[C@@H]1Oc2c(NS(=O)(=O)c3cn(C)cn3)cccc2C(=O)N([C@@H](C)CO)C[C@H]1C | 6 | -8 | 1.8 | -0.61
Cc1noc(C)c1S(=O)(=O)Nc1ccc2c(c1)C(=O)N([C@H](C)CO)C[C@H](C)[C@H](CN(C)S(=O)(=O)c1ccccc1)O2 | . | 9 | . | -0.1
N#CC(C(=O)Nc1ccccc1)=C1CCCC1 | 29 | -34 | -1.8 | -0.43
COc1ccc(NC(=O)N(C)C[C@H]2Oc3ccc(NC(=O)CCN4CCOCC4)cc3CC(=O)N([C@@H](C)CO)C[C@@H]2C)cc1 | -16 | 4 | 1.7 | -0.14
Cc1noc(C)c1S(=O)(=O)Nc1ccc2c(c1)CC(=O)N([C@H](C)CO)C[C@H](C)[C@H](CN(C)S(=O)(=O)c1cn(C)cn1)O2 | -12 | -2 | -0.4 | 0.73
Cc1cc(C(=O)Nc2cccc3c2O[C@H](CN(C)Cc2ccc(Oc4ccccc4)cc2)[C@@H](C)CN([C@@H](C)CO)C3=O)n(C)n1 | 77* | 45 | -2.0 | -0.25
C[C@@H]1CN([C@H](C)CO)C(=O)Cc2cc(NS(=O)(=O)c3ccccc3)ccc2O[C@H]1CN(C)C(=O)Nc1ccccc1 | 41 | -1 | -0.3 | 0.33
Cc1cccc(NC(=O)C(C)NS(=O)(=O)c2ccccc2)c1 (stereo not drawn) | . | 12 | -1.6 | .
COc1ccc(S(=O)(=O)Nc2ccc3c(c2)CC(=O)N([C@@H](C)CO)C[C@@H](C)[C@@H](CN(C)Cc2ccc(C(F)(F)F)cc2)O3)cc1 | -6 | 37 | 0.3 | 0.45
Cc1cc(C)c(NC(=O)CSc2nnc(-c3ccncc3)n2-c2ccccc2)c([N+](=O)[O-])c1 | . | -17 | 0.9 | .
C[C@@H]1CN([C@@H](C)CO)C(=O)c2cccc(NC(=O)Nc3ccc4c(c3)OCO4)c2O[C@@H]1CN(C)C(=O)NC1CCCCC1 | -29 | -4 | -3.4 | -0.2
C[C@H](CO)N1C[C@H](C)[C@H](CN(C)Cc2ccc(C(=O)O)cc2)Oc2ccc(NC(=O)CCN3CCOCC3)cc2C1=O | 13 | -16 | 2.3 | -0.098
C[C@@H]1CN([C@H](C)CO)C(=O)c2cc(NS(=O)(=O)c3ccc(F)cc3)ccc2O[C@H]1CN(C)C(=O)Nc1ccc(F)cc1 | -38 | 1 | -0.1 | -0.044
C[C@@H]1CN([C@@H](C)CO)C(=O)Cc2cc(NC(=O)C3CCCCC3)ccc2O[C@@H]1CN(C)Cc1ccncc1 | -10 | -1 | -1.0 | 0.13
C[C@H](CO)N1C[C@H](C)[C@H](CN(C)Cc2ccc(C(=O)O)cc2)Oc2ccc(NC(=O)Nc3ccc(F)cc3)cc2C1=O | -2 | -7 | 2.9 | 0.37
C[C@@H]1CN([C@H](C)CO)C(=O)c2cccc(NC(=O)c3ccncc3)c2O[C@H]1CN(C)Cc1ccc(C(=O)O)cc1 | 1 | 3 | 0.7 | -0.28
CCCCC(=O)N(Cc1ccc(-c2ccccc2-c2nn[nH]n2)cc1)[C@H](C(=O)O)C(C)C | -38 | 7 | . | 0.27
NC(=NC(=O)CCn1c(=O)oc2ccccc21)c1ccc(C(F)(F)F)cc1 | . | 19 | 2.3 | 0.4
C[C@@H]1CCCCO[C@H](CN(C)C(=O)C2CCCCC2)[C@@H](C)CN([C@H](C)CO)C(=O)c2cc(NC(=O)c3ccncc3)ccc2O1 | -5 | 3 | 0.6 | 0.2

(next part)
SMILES,Shh pathway inh,MITF inh,PD-1 reverse act,YB-1 expression
C[C@@H]1CN([C@H](C)CO)C(=O)c2cc(NS(=O)(=O)c3ccc(F)cc3)ccc2O[C@H]1CN(C)C(=O)Nc1ccccc1,.,-10,-0.4,0.022
C[C@H]1CN([C@@H](C)CO)C(=O)c2cc(NC(=O)Nc3cccc4ccccc34)ccc2O[C@H]1CN(C)S(C)(=O)=O,-13,10,-1.6,0.58
C[C@@H]1CN([C@@H](C)CO)C(=O)c2cc(NS(C)(=O)=O)ccc2O[C@@H]1CN(C)Cc1ccc(-c2ccccc2)cc1,14,-4,0.3,0.67
C[C@H]1CN([C@@H](C)CO)C(=O)Cc2cc(NC(=O)Nc3cccc4ccccc34)ccc2O[C@@H]1CN(C)Cc1ccc(Oc2ccccc2)cc1,-48,19,0.6,0.11
Cn1c(SCC(=O)Nc2ccc(Cl)cc2Cl)nnc1-c1ccc(Cl)cc1,.,10,-3.0,.
CC(C)NC(=O)N(C)C[C@H]1Oc2ccc(NC(=O)Nc3ccc4c(c3)OCO4)cc2C(=O)N([C@@H](C)CO)C[C@@H]1C,-18,-7,1.8,-0.11
CC(=O)N1c2ccccc2C(C)(c2ccccc2)CC1(C)C (stereo not drawn),-3,3,-1.4,-0.15
N#Cc1c(-c2ccccc2)cc(-c2ccccc2)nc1N,.,31,-1.8,-0.65
O=C(O)C1CC=CCC1C(=O)Nc1ccc(S(=O)(=O)N2CCCc3ccccc32)cc1 (stereo not drawn),.,-11,0.6,.
COc1ccc(-c2cc(=O)c3c(O)cc(O)c(-c4cc(-c5cc(=O)c6c(O)cc(O)cc6o5)ccc4OC)c3o2)cc1,6,-10,.,-0.55
O=C(Nc1cc(-c2ccc(Cl)cc2)[nH]n1)C1Cc2ccccc2C1,-38,-13,-0.6,-0.69
Cc1ccc(S(=O)(=O)N(C)C[C@H]2Oc3ccc(NC(=O)Cc4ccccc4)cc3CC(=O)N([C@@H](C)CO)C[C@@H]2C)cc1,32,8,.,0.047
CN(C)Cc1nc(-c2cn(C)c3ccccc23)no1,9,-46,2.3,0.63
C[C@@H]1CN([C@H](C)CO)C(=O)c2cccc(NC(=O)NC3CCCCC3)c2O[C@H]1CN(C)Cc1ccc(Cl)c(Cl)c1,2,11,-0.1,0.0083
C[C@H]1CN([C@@H](C)CO)C(=O)Cc2cc(NS(C)(=O)=O)ccc2O[C@H]1CN(C)C(=O)Nc1ccccc1,15,-6,0.8,0.59
C[C@H]1CN([C@@H](C)CO)C(=O)c2cc(NC(=O)C3CC3)ccc2O[C@H]1CN(C)C(=O)Nc1ccc(C(F)(F)F)cc1,-15,-11,-1.3,0.6
Cc1ccc(S(=O)(=O)Nc2ccc3c(c2)C(=O)N([C@H](C)CO)C[C@H](C)[C@@H](CN(C)CC2CCCCC2)OCCCC[C@@H](C)O3)cc1,-23,-1,-1.7,-0.15
COc1ccc(C)cc1NC(=O)c1ccccc1N(C)S(=O)(=O)c1ccccc1,.,-11,0.2,.
C[C@@H]1CN([C@H](C)CO)C(=O)c2cc(NS(=O)(=O)c3ccccc3)ccc2O[C@H]1CN(C)CC1CCCCC1,4,-7,0.5,-0.13
COc1ccc(NC(=O)N(C)C[C@@H]2OCCCC[C@@H](C)Oc3ccc(NC(=O)Nc4cccc5ccccc45)cc3C(=O)N([C@H](C)CO)C[C@@H]2C)cc1,-12,-14,-0.7,0.18
C[C@@H]1CN([C@H](C)CO)C(=O)c2cc(NC(=O)C3CCCCC3)ccc2O[C@@H]1CN(C)Cc1ccccc1,.,-1,-0.6,-0.14
CC(C)NC(=O)Nc1cccc2c1O[C@@H](CN(C)Cc1ccccc1)[C@H](C)CN([C@@H](C)CO)C2=O,-74,5,0.4,0.15
COc1ccc(NC(=O)Nc2ccc3c(c2)C(=O)N([C@H](C)CO)C[C@H](C)[C@H](CN(C)C(=O)c2ccccc2)OCCCC[C@@H](C)O3)cc1,-62,-5,0.9,-0.57
CC(C)=CCC[C@@](C)(O)[C@H]1CC[C@]2(C)C1CC(O)C1[C@]3(C)C(CC[C@]12C)C(C)(C)[C@@H](O)C[C@H]3O (stereo partly drawn),-33,-3,0.0,-0.32
CC(C)(C)c1ccc(OCC(O)CN2CCN(CCO)CC2)cc1 (stereo not drawn),.,-5,-1.3,.
Cc1ccc(S(=O)(=O)N(C)C[C@@H]2Oc3ccc(NC(=O)C4CCCCC4)cc3C(=O)N([C@@H](C)CO)C[C@@H]2C)cc1,.,14,1.0,-0.32
Cc1cc(C(=O)Nc2cccc3c2O[C@H](CN(C)CC2CC2)[C@H](C)CN([C@@H](C)CO)C3=O)n(C)n1,-131,-4,1.1,-0.081
Cc1cc(C(=O)Nc2cccc3c2O[C@@H](CN(C)S(=O)(=O)c2ccc(Cl)cc2)[C@@H](C)CN([C@H](C)CO)C3=O)n(C)n1,78*,-43,0.9,0.48
C[C@@H]1CCCCO[C@@H](CN(C)S(=O)(=O)c2cccs2)[C@@H](C)CN([C@H](C)CO)C(=O)c2cc(NS(=O)(=O)c3cccs3)ccc2O1,.,-8,.,0.082
CSc1nc(C)nc(N/C=C(\C#N)S(=O)(=O)c2ccc(C)cc2)n1,.,-9,-0.3,0.2
COc1c2c(c(C)c3c1C(=O)OC3)OC1(C)CC(O)C(C(C)(C)O)C(C)(CCC(=O)O)C1C2 (stereo not drawn),25,.,.,0.27
N#C/C(=C\Nc1cc(C(F)(F)F)cc(C(F)(F)F)c1)S(=O)(=O)Cc1ccc(Cl)cc1,107*,72,0.9,-0.25
COc1ccc(NC(=O)N(C)C[C@@H]2OCCCC[C@@H](C)Oc3ccc(NS(=O)(=O)c4ccccc4)cc3C(=O)N([C@H](C)CO)C[C@@H]2C)cc1,0,-19,-3.2,0.14

Compounds above that have an NH in an aromatic ring (three):
SMILES,Shh pathway inh,MITF inh,PD-1 reverse act,YB-1 expression
O=C(CSc1nc(-c2ccccc2)cc(=O)[nH]1)Nc1ccccc1,.,-7,-0.1,.
CCCCC(=O)N(Cc1ccc(-c2ccccc2-c2nn[nH]n2)cc1)[C@H](C(=O)O)C(C)C,-38,7,.,0.27
O=C(Nc1cc(-c2ccc(Cl)cc2)[nH]n1)C1Cc2ccccc2C1,-38,-13,-0.6,-0.69

Bioassay records from PubChem BioAssay.
